High-throughput results (PubChem)
AID504770: growth inhibitors of E. coli YBA685 in a screen for V. cholerae RctB (chromosome II replication) inhibitors | z-score (concentration not given with the values) | E. coli YBA685 rctB-dependent plasmid, OD600 growth, 3 h; hits give low values | AID 504770 | hit rate 0.27% among 130,000;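 active = z-score under -2 on both plates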;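 note: wells of about 30 µL received 100 nL stock; score is relative to mean and SD of the test wells; the first replicate is given; strong numbers were not always called active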
Ba CapD inh: blocks the Bacillus anthracis CapD enzyme; purified CapD enzyme, fluorescence intensity read-out; hits give low values; some hits fall short of the stated cut; z-score (no concentration beside the values); AID 492967; hit rate 0.23% among 140,000;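 active = z-score under -4 in either of two replicates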;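 note: stock transfer was 100 nL into about 40 µL; score is relative to mean and spread of the plate; one replicate is shown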
* marks the source's active call; other numbers are inactive results; nt = not tested or not shown. Only part of the results is shown. The share of hits here may be higher or lower than overall.

Compound,AID504770,Ba CapD inh
COc1ccc(N2C(=O)CSC23C(=O)Nc2ccccc23)cc1OC (configuration not stated),nt,-0.96
O=C1N/C(=N\Nc2ccccc2)S/C1=C\c1ccccc1,-0.45,-2.4
OCC(O)/C=N/Nc1nc2ccccc2s1 (configuration not stated),-0.7,1.7
Cc1ccc(Cl)cc1NC(=S)N(N)CCO,-0.35,-0.63
O=C(c1ccc(Cl)cc1)N1CCSC1=S,1.6,-3.5*
CN1CCC(n2nccc2NC(=O)c2cccnc2Sc2ccccc2)CC1,-0.45,nt
COCC(C)NC(=O)c1c(-c2ccccc2)noc1C (configuration not stated),-0.15,0.05
CC1(C)C(=O)NC(=O)N1CN1C(=O)NC(=O)C1(C)C,-0.75,nt
COc1ccc(C(=O)[C@@H]2[C@@H](c3cccs3)C(C#N)(C#N)[C@H]3C=Cc4ccccc4N23)cc1,-0.45,-0.71
Cc1ccccc1NS(=O)(=O)c1ccc2c(c1)CCN2C(=O)C1CCC1,-0.15,1.1
COC(=O)C1=NNC2C(=O)N(c3ccc(C)cc3)C(=O)C12 (configuration not stated),nt,-0.09
COCc1cc(C)c2c(N)c(C#N)sc2n1,0.15,3.8
CC1CC(C(O)c2ccccn2)C(=O)C(C(O)c2ccccn2)C1 (configuration not stated),0.2,0.25
Cc1cc(NC(=O)c2cc(=O)c3ccccc3o2)no1,-0.6,-0.095
O=C(O)C1CCCCC1C(=O)Nc1cccc(F)c1 (configuration not stated),-0.85,0.45
COc1cccc(N2C(=O)/C(=C/c3ccc(OC)c4ccccc34)C(=O)NC2=S)c1,nt,0.29
O=C(CNC(=O)C1CCCCC1)Nc1ccc(S(=O)(=O)NCc2ccco2)cc1,-1.2,nt
NC(=O)C1CCN(C(=O)c2ccc3c(c2)S(=O)(=O)c2ccccc2C3=O)CC1,-1.2,nt
N#CC1=C(N)Oc2n[nH]c(-c3ccc(Br)cc3)c2C1c1ccc(N2CCOCC2)c([N+](=O)[O-])c1 (configuration not stated),nt,-0.55
Cc1cccc(S(=O)(=O)NCCC(c2ccccc2)c2ccccc2)c1,nt,-0.39
CCCC1C2CN(C(C)C)CC=C2C(C#N)=C(N)C1(C#N)C#N (configuration not stated),-1.1,nt
COc1ccc(CC(=O)N/N=C/c2ccnc3ccccc23)cc1OC,nt,-0.005
Nc1nc(COC(=O)C2CCN(S(=O)(=O)c3c(Cl)cccc3Cl)CC2)nc(Nc2ccccc2)n1,2.3,nt
Cc1ccc(S(=O)(=O)NC2=NCN(CCN3CCOCC3)CN2)cc1,-0.9,-0.82
O=S(=O)(NC1=NCCCCC1)c1ccc2ccccc2c1,0.05,-0.35
N/C(=N\O)c1cn(Cc2ccccc2Cl)c2ccccc12,0,0.13
O=C1/C(=C/c2ccc(Cl)cc2)C=C(c2ccccc2)N1c1ccccc1Cl,nt,-0.59
COC(=O)c1sccc1N/N=C(\C#N)C(=O)c1cccs1,nt,-0.21
O=S(=O)(CCN1CCN(CCS(=O)(=O)c2ccccc2)CC1)c1ccccc1,nt,0.045
COc1ccc(C=Nc2ccc3[nH]c(=O)[nH]c3c2)cc1OC,0,17
NC(=O)COc1ccc(S(=O)(=O)N2CCCCC2)cc1,-0.45,0.55
CC(C)=CCCC1=CCC(/C=N/NC(N)=O)C(C)C1 (configuration not stated),0.4,-0.27
CCCn1nc(C(=O)NCCN2CCOCC2)c2ccccc2c1=O,-0.55,nt
CS(=O)(=O)Nc1ccc2[nH]c(=O)c(=O)[nH]c2c1,-0.65,1.5
C=CCn1c(=N)c(C(=O)NCC2CCCO2)cc2c(=O)n3cccc(C)c3nc21 (configuration not stated),0.75,65
O=C(CSc1ncn[nH]1)N1CCOCC1,-0.65,nt
O=C(NC1CCCC1)c1cccc2c1C(=O)N(C1CCCCC1)C2,-1.4,-0.74
CC1CCN(C(=O)COC(=O)Cc2ccc(Cl)cc2)CC1,-0.4,0.43
O=C(O)C1C2C=CC(C2)C1C(=O)Nc1cccc(Br)c1 (configuration not stated),0,-0.28
CCOP(=O)(OCC)c1nc(-c2ccc(Cl)cc2)oc1NC,nt,71
CCSc1nnc(CCNC(=O)Nc2ccc(Cl)cc2C(F)(F)F)n1C,-1.9,nt
COc1ccc(C(=O)NCc2c(-c3ccccc3)noc2C)cc1,0.15,0.95
Nc1cc(=O)[nH]c(SCC(=O)N2CCc3ccccc32)n1,-0.8,-0.31
O=C1c2ccccc2-c2c1cccc2C(=O)N1CCCCC1,0.05,-1
O=C1CC(CSc2nnnn2-c2ccccc2)=NN1,-0.9,nt

Next part, starting with the last 2 of the part before.
Compound,AID504770,Ba CapD inh
O=C1c2ccccc2-c2c1cccc2C(=O)N1CCCCC1,0.05,-1
O=C1CC(CSc2nnnn2-c2ccccc2)=NN1,-0.9,nt
CC1CCCC(C)N1C(=O)COC(=O)/C=C/c1ccco1 (configuration not stated),-0.75,-0.76
CC(C)N(Cc1nc(-c2ccccc2)no1)C(=O)c1ccccc1,-0.25,0.35
N#CC(c1ccccc1)C12CC3CC(CC(C3)C1)C2 (configuration not stated),-1.4,nt
Nc1cccc(NC(=O)c2ccccc2)c1,-0.8,1
Cc1[nH]c2ccccc2c1C(=O)CN1CC(C)OC(C)C1 (configuration not stated),-3.4,nt
O=C(/C=C/Nc1ccccc1)C(F)(F)F,-0.1,nt
Cc1ccc(C(C)C)c(OCc2ccc(N)cc2)c1,0.05,0.2
Cc1nnc(SCC(=O)Nc2ccc3nc(SCC(=O)NCC4CCCO4)sc3c2)s1 (configuration not stated),nt,0.69
O=C(COc1cccc(F)c1)Nc1ccccc1C(=O)c1ccccc1Cl,nt,0.03
CCOC(=O)C1=C(c2ccccc2)NC(=O)NC1c1ccc(OC)c(OC)c1 (configuration not stated),0.05,0.25
CC(=O)NCc1ccc(C(=O)CSc2nnc(-c3ccoc3C)n2C)s1,-0.5,nt
COc1cccc(C2Nc3ccccc3S2)c1OC (configuration not stated),-0.25,34
COc1ccccc1CNC(=O)c1ccc2nc3c(cc2c1)CCS3,1.7,0.15
CCC1(c2ccccc2)NC(=O)NC1=O (configuration not stated),0.05,nt
N#Cc1cccc(C(=O)NCC(F)(F)F)c1,0.05,nt
COc1ccc(C)cc1S(=O)(=O)N1CC=C(n2c(=O)[nH]c3ccccc32)CC1,nt,0.18
CCN(Cc1ccccc1)C(=O)Cn1c(=O)n(-c2ccc(OC)cc2)c(=O)c2ccccc21,-0.6,-1.1
O=C1CC(CSc2ccc(Cl)cc2)=NN1,nt,-0.13
COC(=O)c1c(C)[nH]c(C(=O)CSc2ncnc3sc4c(c23)CCC4)c1C,nt,-1
CC(NS(=O)(=O)c1ccccc1)c1ccccc1 (configuration not stated),0.75,0.68
Cc1ccccc1NC(=S)N1CCC(N(C)C(C)C)CC1,-0.55,-1.1
O=C(CC(c1ccco1)C1CCCCC1=O)c1ccco1 (configuration not stated),-0.7,0.05
N#C/C(=C\c1ccc[nH]1)C(=O)N1CCc2ccccc2C1,-0.45,nt
N#Cc1ccc(-c2ccc(Cl)cc2)n(Cc2ccc(Cl)c(Cl)c2)c1=O,nt,1.4
O=C1NC(c2ccc(O)cc2)C(C(=O)c2ccccc2)C(O)(C(F)(F)F)N1 (configuration not stated),-0.85,-0.99
CC(CCOC(=O)NNC(=O)/C=C/c1ccc(F)cc1Cl)c1ccccc1 (configuration not stated),nt,18
CCOc1ccc(C2C(N3C(=O)c4ccccc4C3=O)C(=O)N2c2ccc(Br)cc2)cc1 (configuration not stated),nt,-0.27
CC(=O)Nc1cccc(C(=O)Nc2ccc(N3CCCCC3)cc2)c1,0.4,nt
CC(c1ccccc1)N1CC(C(=O)NC2CCCC2)CC1=O (configuration not stated),0.25,0.085
Cc1ccc2[nH]cc(C(=O)N3CCCCC3)c(=O)c2c1,-0.45,nt

Entries listed so far that contain a CF3 group, in the order listed:
Compound,AID504770,Ba CapD inh
CCSc1nnc(CCNC(=O)Nc2ccc(Cl)cc2C(F)(F)F)n1C,-1.9,nt
O=C(/C=C/Nc1ccccc1)C(F)(F)F,-0.1,nt
N#Cc1cccc(C(=O)NCC(F)(F)F)c1,0.05,nt
O=C1NC(c2ccc(O)cc2)C(C(=O)c2ccccc2)C(O)(C(F)(F)F)N1 (configuration not stated),-0.85,-0.99

Next section.
Compound,AID504770,Ba CapD inh
Cc1noc(C)c1COc1ccc(CC(=O)NC2CCCc3ccccc32)cc1 (configuration not stated),-0.3,nt
O=C1OCCC1Oc1ncnc2ccccc12 (configuration not stated),0,nt
COC(=O)c1ccc(CNC(=O)Cn2cnnn2)cc1,0.95,nt
Cc1oc2ccc(NS(=O)(=O)c3ccc(Br)cc3)cc2c1C(=O)OC(C)C,nt,0.03
CCCn1c(C)cc(C(=O)CSc2ncn[nH]2)c1C,-0.35,nt
Cc1cccc(OCCOC(=O)c2ccccc2O)c1,-1.4,nt
CS(=O)(=NS(=O)(=O)c1cccs1)c1ccc(OC(=O)c2ccc(Cl)cc2)cc1 (configuration not stated),-0.45,-0.18
O=C(NCCOc1cccc2cccnc12)c1cc(C(F)(F)F)cc(C(F)(F)F)c1,nt,2.9
O=C(Nc1ccccc1)/C(=C/c1cccc([N+](=O)[O-])c1)NC(=O)c1ccccc1Br,nt,-0.76
COc1cc2c(cc1OC)C(c1cc3cc4c(cc3[nH]c1=O)OCO4)N(C(=O)C1CCC1)CC2 (configuration not stated),0,nt
CSc1nc(C)cc(Oc2ccc(=O)n(C)n2)n1,-1.4,-0.12
N#Cc1nc(-c2ccccc2)oc1N1CCN(C(c2ccccc2)c2ccccc2)CC1,0,nt
N#C/C(=C1\CCCN1)c1nc2ccccc2s1,1.1,1
COc1ccc(-c2csc(C(C#N)=C3CCCC3)n2)cc1,0.05,nt
C=C1c2ccccc2NC(=S)N1c1ccc(OC)cc1,-1.2,nt
Cc1ccc(-n2c(N)c(C(=O)NCC(C)C)c3nc4ccccc4nc32)cc1,1,nt
CCOc1ccc(C(=S)N2CCN(C)CC2)cc1,-0.65,0.34
Fc1ccc(C2Nc3ccc4ccccc4c3C3C=CCC32)cc1 (configuration not stated),nt,3.2
CC(C)Sc1nnc(OC(=O)N(C)C)n1-c1ccccc1,-0.55,-0.31
N#Cc1c(C(F)(F)F)cc(-c2ccccc2)nc1SCC(N)=O,-0.55,3.2
Cc1cc(C)n(C(=O)CC#N)n1,0.85,0.045
O/N=C1\CCCc2ccccc21,nt,0.1
Clc1ccc(-c2cnc3ccc(I)cn23)cc1,nt,0.11
O=C1CC(c2ccc3c(c2)OCO3)CC2=C1C(c1ccncc1)Nc1ccccc1N2 (configuration not stated),1.5,nt
CCNC(=O)C1CCCN1S(=O)(=O)c1ccc(C)cc1 (configuration not stated),0.9,0.23
O=C1NC2(CCCCC2)N(C(=O)c2ccccc2F)C2=C1CCCC2,-0.8,-0.56
CCOP(=O)(c1ccccc1)C1(O)CCCCC1 (configuration not stated),1.1,-0.28
Cc1ccc(CC(=O)OC(C)C(N)=O)cc1C (configuration not stated),-0.6,nt
COC(=O)c1sccc1NC(=S)OC,1.2,-0.33
COc1cc2ncc(C(=O)c3ccccc3)c(N3CCOCC3)c2cc1OC,-0.95,nt

Next part; the last two above are carried over.
Compound,AID504770,Ba CapD inh
COC(=O)c1sccc1NC(=S)OC,1.2,-0.33
COc1cc2ncc(C(=O)c3ccccc3)c(N3CCOCC3)c2cc1OC,-0.95,nt
CC(=O)Nc1ccc(NC(=O)Oc2ccccc2)cc1,-0.65,-0.54
O=c1c2snc(-c3ccc(Cl)cc3)c2ncn1C1CC1,0.3,nt
O=C(c1cc2c(Cl)nc3ccccc3c2s1)N1CCCC1,0.1,0.48
CCOC(=O)/C(C#N)=C/C1=C(N)CC(C)(C)OC1,0.1,nt
COc1ccc(-c2ocnc2C(=O)NC2CCCc3ccccc32)cc1 (configuration not stated),0.65,2.6
COC(=O)C(NC(=O)Nc1ccccc1OC)C(C)C (configuration not stated),-0.45,nt
Oc1c(C=Nc2cccnc2)sc2ccccc12,nt,-0.9
C=CCn1c(SCC(=O)Nc2ccc(OCC)cc2)nc2cc(C(=O)N3CCOCC3)ccc2c1=O,nt,-0.16
CC(=O)N1CC(C(=O)NC2CCCCCC2)Oc2ccccc21 (configuration not stated),1.8,nt
Cc1cccc(N2CCN(C(=O)C(NC(=O)c3c(F)cccc3F)C(C)C)CC2)c1C (configuration not stated),-2.1,nt
C/C(CCc1oc2ccccc2c1-c1ccc(C)o1)=N\O,-0.5,-0.12
Cc1cc(=O)cc(C)n1-c1ccccc1,-0.8,-0.15
CC1CCC(C(=O)NC(C(=O)N2CCC(N3CCCCC3)CC2)C(C)C)CC1 (configuration not stated),0.1,-0.53
CC1CCCCN1CCNc1nc(=S)[nH]c2ccccc12 (configuration not stated),-0.55,-1.7
N#CC1=C(N)Oc2c(c(=O)oc3ccccc23)C1C1CC=CCC1 (configuration not stated),-0.75,nt
O=C(CSc1nnc2sc3ccccc3n12)Nc1cc(Cl)ccc1Cl,nt,-0.23
CS(=O)(=O)Cc1ccc(C(=O)O)cc1,-0.9,nt
